# High-throughput results from PubChem.
# UUG fidelity: modulators of yeast start codon fidelity, primary screen, whole organism, S. cerevisiae, single point, plate reader; AID 602363, 2012; activity score, % at 18.7 µM; actives 0.13% (n = 350,000); S. cerevisiae UUG-firefly luciferase reporter, luminescence/redox ratio;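 active = replicate mean at a twofold rise or more, about +100% in these data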;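 also: firefly luciferase made from a UUG start codon reports start codon fidelity; reporter light over untreated wells divided by growth signal over untreated wells; some hits fall short of that in this replicate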
# * = called active by the depositor. This is a subset, so the mix of outcomes need not match the whole.
SMILES,UUG fidelity
C[C@@H]1CN([C@H](C)CO)C(=O)Cc2cc(NC(=O)CCN3CCOCC3)ccc2O[C@@H]1CN(C)S(=O)(=O)c1ccc(F)cc1,11.9
COc1ccc(NC(=O)N2CC[C@@H]3[C@H]2c2cc(C4=CCCCC4)ccc2N(C)[C@H]3CO)cc1,-16.9
O=S(=O)(c1ccccc1F)N1CCCCN2[C@H](C1)[C@@H](c1ccc(-c3ccccc3)cc1)[C@@H]2CO,16.1
C[C@H]1CN([C@@H](C)CO)C(=O)c2cccc(NC(=O)c3ccncc3)c2O[C@H]1CN(C)S(=O)(=O)c1cn(C)cn1,-29.8
CO[C@H]1CN(C)C(=O)c2ccc(NC(=O)C3CC3)cc2OC[C@H](C)N(CC2CCCC2)C[C@H]1C,16.0
COCC(=O)Nc1ccc2c(c1)C(=O)N(C)[C@H]1CC[C@@H](CC(=O)NCC(F)(F)F)O[C@H]1CO2,-8.6
C[C@H]1CN([C@@H](C)CO)C(=O)Cc2cc(NS(=O)(=O)c3ccccc3)ccc2O[C@@H]1CN(C)C,-10.9
Cc1cccc(-c2ccc([C@@H]3[C@H](CO)N4CCCCN(C(=O)c5ccc6c(c5)OCO6)C[C@@H]34)cc2)c1,1.5
N#Cc1cccc(-c2ccc([C@@H]3[C@@H](CO)N4CCCCN(C(=O)Nc5cccc(F)c5)C[C@H]34)cc2)c1,-3.6
CCN1[C@@H]2Cn3c(ccc(-c4ccccc4OC)c3=O)[C@H]1[C@@H](C(=O)NCc1ccccn1)[C@@H]2CO,-13.8
C[C@@H]1CN([C@@H](C)CO)C(=O)c2cccc(NC(=O)CCCCCC(=O)Nc3ccccc3N)c2O[C@@H]1CN(C)Cc1ccc(Cl)c(Cl)c1,-0.7
O=C(C1CCCCC1)N1C[C@@H]2[C@H](c3ccccc31)[C@@H](CO)N2C(=O)c1ccccc1F,-6.8
CO[C@@H]1CN(C)C(=O)c2ccc(NC(=O)C3CCOCC3)cc2OC[C@H](C)N(CC2CC2)C[C@H]1C,-4.1
Cc1noc(C)c1S(=O)(=O)Nc1ccc2c(c1)C(=O)N([C@H](C)CO)C[C@H](C)[C@H](CN(C)C)O2,-10.3
COc1ccc(S(=O)(=O)Nc2cccc3c2O[C@@H](CN(C)Cc2ccc(C(=O)Nc4ccccc4N)cc2)[C@@H](C)CN([C@@H](C)CO)C3=O)cc1,12.3
C[C@@H]1CN([C@H](C)CO)C(=O)Cc2cc(NC(=O)C3CC3)ccc2O[C@H]1CN(C)C(=O)Nc1ccccc1,9.7
CC(C)NC(=O)N(C)C[C@@H]1Oc2ccc(NS(=O)(=O)c3ccc(F)cc3)cc2C(=O)N([C@H](C)CO)C[C@@H]1C,-10.4
O=C(C1CCOCC1)N1CC[C@H]2[C@H](CO)Nc3ccc(-c4cccc(F)c4)cc3[C@H]21,-2.6
COc1cccc(-c2ccc3c(c2)[C@@H]2[C@@H](CCN2C(=O)c2ccc(F)cc2)[C@H](CO)N3C)c1,-7.9
C[C@@H]1CN([C@H](C)CO)C(=O)Cc2cc(NC(=O)C3CCCCC3)ccc2O[C@@H]1CN(C)S(=O)(=O)c1ccc(F)cc1,0.5
CC(=O)NC[C@@H]1[C@@H](c2ccccc2)[C@H](CO)N1C(=O)Cc1ccncc1,-8.2
CO[C@@H]1CN(C)C(=O)c2cc(NC(=O)C3CC3)ccc2OC[C@H](C)N(C(=O)c2ccccc2)C[C@H]1C,6.9
CCCC(=O)Nc1ccc2c(c1)C(=O)N(C)[C@@H]1CC[C@H](CC(=O)Nc3cn(C)nc3C)O[C@@H]1CO2,-3.0
C[C@H](CO)N1C[C@H](C)[C@H](CN(C)C)Oc2c(NS(=O)(=O)c3ccccc3)cccc2C1=O,21.1
O=C(NC1CCCC1)[C@H]1[C@H](CO)[C@H]2Cn3c(ccc(-c4ccccc4)c3=O)[C@H]2N1CCc1ccccc1,31.3
CO[C@@H]1CN(C)C(=O)c2cc(NC(=O)C3CC3)ccc2OC[C@H](C)N(C(=O)C2CCCCC2)C[C@H]1C,-5.6
O=C(c1cccc(F)c1)N1CCCCN2[C@H](CO)[C@@H](c3ccc(-c4cccnc4)cc3)[C@H]2C1,-11.9
C/C=C/c1ccc([C@@H]2[C@H]3CN(C(=O)Nc4ccc(F)cc4)CCCCN3[C@H]2CO)cc1,15.1
Cc1cccc(S(=O)(=O)N2CCCCN3[C@@H](CO)[C@@H](c4ccc(C#C[C@H](C)O)cc4)[C@@H]3C2)c1,24.3
COc1ccc(C#Cc2ccc3c(c2)[C@H]2[C@H](CCN2C(=O)NC(C)C)[C@H](CO)N3C)cc1,17.3
C[C@@H]1CN([C@@H](C)CO)C(=O)c2cc(NC(=O)Cn3cnnn3)ccc2O[C@H]1CN(C)S(=O)(=O)c1cccs1,-2.4
O=C(Nc1ccccc1F)N1C[C@@H]2[C@H](c3ccccc31)[C@H](CO)N2C(=O)c1ccccc1F,2.1
CO[C@H]1CN(C)C(=O)c2ccc(NC(=O)c3ccc4c(c3)OCO4)cc2OC[C@H](C)NC[C@@H]1C,-3.6
Cc1ccc(S(=O)(=O)Nc2ccc3c(c2)CC(=O)N([C@H](C)CO)C[C@@H](C)[C@H](CN(C)C(=O)NC2CCCCC2)O3)cc1,-11.0
COc1ccccc1S(=O)(=O)N1CC[C@@H]2[C@@H](CO)N(C)c3ccc(-c4cccc(C#N)c4)cc3[C@@H]21,-3.2
CC=Cc1ccc2n(c1=O)C[C@H]1[C@H](CO)[C@@H](C(=O)NCc3ccccc3)N(C)[C@@H]21 (mixture of isomers),5.2
Cc1cccc(S(=O)(=O)N2CCCCN3[C@H](C2)[C@H](c2ccc(C#CC4CC4)cc2)[C@@H]3CO)c1,9.9
C[C@H]1CN([C@@H](C)CO)C(=O)Cc2cc(NC(=O)Nc3cccc4ccccc34)ccc2O[C@H]1CN(C)C(=O)Nc1ccccc1,-5.0
C[C@H]1CN([C@@H](C)CO)C(=O)c2cc(NC(=O)Nc3ccc(C(F)(F)F)cc3)ccc2O[C@@H]1CN(C)C(=O)NC1CCCCC1,-0.1
COc1ccc(S(=O)(=O)Nc2cccc3c2O[C@@H](CN(C)C(=O)Nc2ccc(F)cc2)[C@H](C)CN([C@H](C)CO)C3=O)cc1,0.1

# Another view of some results above.
molecule | UUG fidelity
O=C(c1cccc(F)c1)N1CCCCN2[C@H](CO)[C@@H](c3ccc(-c4cccnc4)cc3)[C@H]2C1 | -11.9
C/C=C/c1ccc([C@@H]2[C@H]3CN(C(=O)Nc4ccc(F)cc4)CCCCN3[C@H]2CO)cc1 | 15.1
Cc1cccc(S(=O)(=O)N2CCCCN3[C@@H](CO)[C@@H](c4ccc(C#C[C@H](C)O)cc4)[C@@H]3C2)c1 | 24.3
COc1ccc(C#Cc2ccc3c(c2)[C@H]2[C@H](CCN2C(=O)NC(C)C)[C@H](CO)N3C)cc1 | 17.3
C[C@@H]1CN([C@@H](C)CO)C(=O)c2cc(NC(=O)Cn3cnnn3)ccc2O[C@H]1CN(C)S(=O)(=O)c1cccs1 | -2.4
O=C(Nc1ccccc1F)N1C[C@@H]2[C@H](c3ccccc31)[C@H](CO)N2C(=O)c1ccccc1F | 2.1
CO[C@H]1CN(C)C(=O)c2ccc(NC(=O)c3ccc4c(c3)OCO4)cc2OC[C@H](C)NC[C@@H]1C | -3.6

# (more compounds)
SMILES,UUG fidelity
C[C@H]1CN([C@@H](C)CO)C(=O)c2cc(NC(=O)Cn3cnnn3)ccc2O[C@@H]1CN(C)Cc1ccc2c(c1)OCO2,-15.1
C[C@@H]1CN([C@@H](C)CO)C(=O)c2cc(NC(=O)Cc3ccccc3)ccc2O[C@@H]1CN(C)C(=O)Nc1ccc(F)cc1,13.0
CC(=O)N1[C@H](CO)[C@@H](c2ccccc2)[C@@H]1CN(CC1CCC1)C(=O)CN(C)C,2.0
O=S(=O)(c1ccc(F)cc1)N1CCCCN2[C@@H](CO)[C@H](c3ccc(-c4ccccc4)cc3)[C@@H]2C1,3.4
Cc1noc(C)c1S(=O)(=O)Nc1ccc2c(c1)C(=O)N([C@@H](C)CO)C[C@@H](C)[C@H](CN(C)C(=O)NC1CCCCC1)O2,-9.6
Cc1cccc(-c2ccc([C@H]3[C@H]4CN(S(=O)(=O)c5cn(C)cn5)CCCCN4[C@H]3CO)cc2)c1,-16.4
COc1ccc(CN2C[C@H](C)[C@H](OC)CN(C)C(=O)c3cc(NC(=O)c4nc5ccccc5s4)ccc3OC[C@@H]2C)cc1,2.4
CN(C[C@H]1N[C@H](CO)[C@H]1c1ccc(C2=CCCCC2)cc1)S(C)(=O)=O,-11.0
CC(C)NC(=O)N(C)C[C@@H]1Oc2c(NC(=O)Nc3ccc(F)cc3)cccc2C(=O)N([C@@H](C)CO)C[C@@H]1C,2.0
COc1ccccc1C#Cc1ccc([C@@H]2[C@@H](CO)N3CCCCN(CCC(F)(F)F)C[C@H]23)cc1,30.6
O=C(C1CCCC1)N1CCCCN2[C@@H](CO)[C@@H](c3ccc(-c4ccncc4)cc3)[C@@H]2C1,-1.8
CO[C@H]1CN(C)C(=O)c2cc(NC(=O)C3CC3)ccc2OC[C@@H](C)N(Cc2ccncc2)C[C@H]1C,2.1
C[C@H](CO)N1C[C@H](C)[C@@H](CN(C)Cc2ccccc2)OCc2ccccc2-c2ccccc2C1=O,-12.8
CNC[C@H]1Oc2c(NC(=O)Nc3ccc(F)cc3)cccc2C(=O)N([C@H](C)CO)C[C@H]1C,-4.2
Cc1ccc(S(=O)(=O)Nc2ccc3c(c2)CC(=O)N([C@H](C)CO)C[C@@H](C)[C@@H](CN(C)Cc2ccc4c(c2)OCO4)O3)cc1,-8.8
CC(C)NC(=O)Nc1ccc2c(c1)CC(=O)N([C@H](C)CO)C[C@@H](C)[C@H](CN(C)C(=O)Nc1ccc(C(F)(F)F)cc1)O2,-8.4
CO[C@@H]1CN(C)C(=O)c2cc(NC(=O)c3nc4ccccc4s3)ccc2OC[C@@H](C)NC[C@@H]1C,-0.7
O=S(=O)(c1cccs1)N1CCCCN2[C@H](C1)[C@@H](c1ccc(/C=C/c3ccccc3)cc1)[C@@H]2CO,-16.3
CO[C@H]1CN(C)C(=O)c2ccc(NC(=O)C3CC3)cc2OC[C@@H](C)N(C(=O)c2ccccc2)C[C@@H]1C,-1.1
CO[C@@H]1CN(C)C(=O)c2cc(NC(C)=O)ccc2OC[C@H](C)N(Cc2ccccn2)C[C@@H]1C,0.7
C[C@H](CO)N1C[C@H](C)[C@H](CN(C)Cc2ccc(-c3ccccc3)cc2)Oc2c(NC(=O)Nc3ccc(C(F)(F)F)cc3)cccc2C1=O,-14.0
Cc1cccc(S(=O)(=O)N2CC[C@H]3[C@@H](CO)N(C)c4ccc(-c5ccc(C#N)cc5)cc4[C@H]32)c1,-9.2
CC(C)NC(=O)Nc1cccc2c1O[C@@H](CN(C)Cc1ccc(C(F)(F)F)cc1)[C@@H](C)CN([C@H](C)CO)C2=O,3.2
C[C@H](CO)N1C[C@H](C)[C@@H](CN(C)C)Oc2ccc(NC(=O)Cc3cn(C)c4ccccc34)cc2C1=O,-4.5
CO[C@@H]1CN(C)C(=O)c2cc(NC(=O)c3nc4ccccc4s3)ccc2OC[C@@H](C)N(Cc2ccccc2)C[C@H]1C,-2.8
C[C@@H]1CN([C@@H](C)CO)C(=O)c2cc(NC(=O)Nc3ccccc3)ccc2O[C@H]1CN(C)CC1CCCCC1,14.6
CC(C)[C@@H](C)NC(=O)N(C)C[C@@H]1OCc2ccccc2-c2c(n(C)c3ccccc23)C(=O)N([C@@H](C)CO)C[C@@H]1C,3.3
C[C@H]1CN([C@@H](C)CO)C(=O)c2cccc(NC(=O)C3CCOCC3)c2O[C@H]1CN(C)Cc1ccc(Cl)c(Cl)c1,-7.7
CN(C)C(=O)c1ccc(-c2ccc3c(c2)[C@H]2[C@H](CCN2S(=O)(=O)c2ccccc2)[C@@H](CO)N3)cc1,-4.0
CO[C@H]1CN(C)C(=O)c2ccc(NS(C)(=O)=O)cc2OC[C@H](C)N(C(=O)C2CC2)C[C@@H]1C,5.2
CN(C)CC(=O)Nc1ccc2c(c1)[C@@H]1C[C@@H](CC(=O)N3CCN(C)CC3)O[C@@H](CO)[C@@H]1O2,0.7
C[C@@H]1CN([C@H](C)CO)C(=O)c2cc(NC(=O)CCC(F)(F)F)ccc2O[C@H]1CN(C)S(=O)(=O)c1ccccc1,12.2
CN(C)CC#Cc1ccc([C@@H]2[C@H]3CN(CC4CCOCC4)CCCCN3[C@H]2CO)cc1,11.3
CN(C)CC(=O)Nc1ccc2c(c1)[C@H]1C[C@@H](CC(=O)NCc3ccc(Cl)cc3)O[C@H](CO)[C@H]1O2,2.0
COc1ccccc1C(=O)N1C[C@@H]2[C@H](c3ccccc31)[C@@H](CO)N2C(=O)Nc1ccccc1,6.7
C[C@@H]1CN([C@H](C)CO)C(=O)c2cccc(NS(=O)(=O)c3ccc(F)cc3)c2O[C@H]1CN(C)C(=O)Nc1cccc2ccccc12,-2.6
COc1ccc(S(=O)(=O)Nc2cccc3c2O[C@@H](CN(C)C(=O)NC2CCCCC2)[C@@H](C)CN([C@H](C)CO)C3=O)cc1,4.1
O=C(Cc1ccccc1)N1C[C@H]2[C@@H](c3ccccc31)[C@@H](CO)N2C(=O)c1cccc(F)c1,8.5
CN(C)C(=O)c1ccc(-c2ccc([C@@H]3[C@@H](CO)N4CCCCN(CC5CC5)C[C@H]34)cc2)cc1,1.2
CCCNC(=O)N1C[C@@H]2[C@H](c3ccccc31)[C@H](CO)N2C(=O)CN1CCOCC1,1.2
Cc1noc(C)c1NC(=O)Nc1cccc2c1O[C@@H](CN(C)S(=O)(=O)c1cn(C)cn1)[C@H](C)CN([C@@H](C)CO)C2=O,2.5
CCNC[C@H]1[C@@H](c2ccccc2)[C@@H](CO)N1C(=O)Cc1ccccn1,7.0
O=C(NCc1ccccc1)[C@@H]1N[C@@H]2c3ccc(-c4ccccc4)c(=O)n3C[C@@H]2[C@H]1CO,9.3
